Screening data (PubChem BioAssay)
Cruzain inh Det: cruzain (T. cruzi) inhibition with detergent | purified cruzain, Z-FR-AMC fluorescence, 0.01% Triton | P25779 | Potency, µM, for the others: max response, negative = inhibition, hits mostly inhibitors | hit rate 0.43% among 200,000; active means well fitted curve in the direction sought with a large enough effect; inconclusive means small, poorly fitted or top-dose-only effect, or another doubt; inactive means no such curve, though single readings can be large; an effect the other way counts as inactive or inconclusive;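 further: plate controls were neutral wells for no effect and buffer without enzyme for full effect; nearly all actives have a fitted effect of over 40% in size; top concentration of the series not given in the record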
Target sequence (P25779 123-467 limits assumed): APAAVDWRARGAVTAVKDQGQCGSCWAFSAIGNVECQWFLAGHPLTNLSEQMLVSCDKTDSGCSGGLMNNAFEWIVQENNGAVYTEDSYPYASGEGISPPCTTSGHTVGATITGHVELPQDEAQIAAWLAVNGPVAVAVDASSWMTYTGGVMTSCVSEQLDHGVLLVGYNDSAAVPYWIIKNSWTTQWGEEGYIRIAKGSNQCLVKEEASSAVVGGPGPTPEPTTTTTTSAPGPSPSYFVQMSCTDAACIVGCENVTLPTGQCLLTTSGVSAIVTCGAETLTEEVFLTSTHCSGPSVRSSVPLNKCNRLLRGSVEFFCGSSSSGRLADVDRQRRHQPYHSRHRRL
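Steps: dispense cruzain (1.5 nM final) in acetate buffer pH 5.5 with DTT and 0.01% Triton X-100; pin-transfer compounds; incubate 15 min RT; add Z-FR-AMC (2 uM final); read fluorescence every 30 s, using the 60 s intensity change.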
SARS PLpro yeast: inhibitors of SARS-CoV papain-like protease in yeast | S. cerevisiae expressing SARS-CoV PLpro, growth rescue; control for the full effect not named in the record | Potency, µM (doses to about 32.9 µM), without a hit: at the highest dose activity, positive = growth rescue | hit rate 0.19% among 330,000 | AID 485353; further: 0% is about no effect; nearly all actives have a fitted effect of over 55% in size; growth read by luminescence after 48 h
NS1 inh: influenza NS1 inhibition; S. cerevisiae slowed by influenza A NS1, growth recovery by OD600; Potency, µM (titrated, usually from 46.1 µM), for inactives: at the highest dose activity, positive = more growth; hit rate 0.4% among 270,000; further: actives are rising curves; nearly all actives have a fitted effect of over 50% in size
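Growth recovery, yeast-based: influenza A NS1 expressed in S. cerevisiae causes slow growth, and suppressors are detected by OD600. The parent strain without NS1 is used as positive control.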
RE007 growth inh: less growth of the S. pombe RE007 Vpr strain | AID 651644 | Potency, µM (titrated, usually from 92.2 µM), without a hit: at the top dose activity change, negative = less growth | hit rate 0.21% among 360,000 | S. pombe RE007 Vpr strain, BacTiter-Glo ATP luminescence, 24 h; control for the full effect not named in the record; active = well fitted falling curve with a large enough effect; inconclusive = small, poorly fitted or top-dose-only effect; inactive = no such curve, though single readings can be large or run the other way;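 further: on the % scale 0 is the no-effect control and ±100 the full control effect; nearly all actives have a fitted effect of over 50% in size; the assay follows cell death caused by Vpr and the record does not say whether a fall means rescue or toxicity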
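Fission yeast RE007 carrying one integrated HIV-1 vpr copy, seeded at OD 0.01 in PMG+AL medium with 23 nL pinned compound. Grown 24 h at 30 degrees; viability read by BacTiter-Glo luminescence after 5 min.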
Cruzain inh noDet: cruzain (T. cruzi) inhibition without detergent; P25779; purified cruzain, Z-FR-AMC fluorescence, no detergent; Potency, µM, inactives show max response, negative = inhibition, usual class: inhibitors; hit rate 2.3% among 200,000; AID 1476; active means well fitted curve in the direction sought with a large enough effect; inconclusive means small, poorly fitted or top-dose-only effect, or another doubt; inactive means no such curve, though single readings can be large; an effect the other way counts as inactive or inconclusive;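 further: plate controls were enzyme without inhibitor for no effect and buffer without enzyme for full effect; nearly all actives have a fitted effect of over 40% in size; top concentration of the series not given in the record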
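Detergent-free condition (0.00005% Triton X-100) in acetate buffer pH 5.5 with DTT. 1.5 nM enzyme and compound were pre-mixed 15 min, then 2 uM Z-FR-AMC substrate added; reaction progress from fluorescence change between first and third reads (60 s).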
StopGo reporter: lowers the luciferase signal of an FMDV 2A StopGo reporter | human cells with a luciferase reporter of 2A StopGo recoding; control for the full effect not named in the record | Potency, µM (series often up to 57.9 µM), inactives show at the highest dose signal change, negative = less light | hit rate 1.2% among 410,000; active = well fitted falling curve with a large enough effect; inconclusive = small, poorly fitted or top-dose-only effect; inactive = no such curve, though single readings can be large or run the other way; tested in HEK293T cells; further: on the % scale 0 is the no-effect control and ±100 the full control effect; nearly all actives have a fitted effect of over 45% in size; luciferase light after 4 h
Lassa entry inh: inhibitors of Lassa virus binding or cell entry; Potency, µM (highest dose often 37.9 µM), for the others: top-dose activity change, negative = inhibition, hits mostly inhibitors; hit rate 1.2% among 300,000; Lassa virus pseudotype entry inhibition, cell reporter; control for the full effect not named in the record; active means well fitted inhibition curve with a large enough effect; inconclusive means small, poorly fitted or top-dose-only effect, or effect the other way; inactive means flat fitted curve, though single readings scatter; tested in HEK293 cells; further: on the % scale 0 is the no-effect control and ±100 the full control effect; nearly all actives have a fitted effect of over 50% in size; luciferase read-out
MARV entry inh: inhibitors of Marburg virus binding or cell entry; Marburg virus pseudotyped entry inhibition, cell reporter; control for the full effect not named in the record; about a third of the inactives were read at about 46 µM; AID 540276; hit rate 1.8% among 300,000; Potency, µM (doses to about 37.8 µM), for the others: top-dose activity change, negative = inhibition, most hits filed as inhibitors; active = well fitted inhibition curve with a large enough effect; inconclusive = small, poorly fitted or top-dose-only effect, or effect the other way; inactive = flat fitted curve, though single readings scatter; tested in HEK293 cells; about a fifth of its hits are not listed in these tables; further: on the % scale 0 is the no-effect control and ±100 the full control effect; luciferase read-out
* hit, by the source's call; u = inconclusive; x = no result given; & = joins results of further samples; [ ] = another dose, or the depositor's remark. Unless noted, the call rests on the fitted dose curve; in most records, active means well fitted rising curve with a large enough effect; inconclusive means small, poorly fitted or top-dose-only effect; inactive means no such curve, though single readings can be large or run the other way. Potency means the concentration at half of the fitted maximal effect.

SMILES	Cruzain inh Det	SARS PLpro yeast	NS1 inh	RE007 growth inh	Cruzain inh noDet	StopGo reporter	Lassa entry inh	MARV entry inh
O=C(O)c1c2c(nc3ccccc13)/C(=C/c1c(F)cccc1F)CCC2	x	1%	-5%	-1%	x	0%	19%	-13%[46.1 µM]
O=C(NC(N1CCOCC1)C(Cl)(Cl)Cl)c1ccccc1Cl (stereo not given)	x	0%	x	8%	x	20%	-22%[46.1 µM]	-7%[46.1 µM]
Cc1cc(C(=O)COC(=O)[C@H](C)NC(=O)c2ccco2)c(C)n1Cc1ccco1	x	-1%	x	-9%	x	9%	4%	-6%[46.1 µM]
COc1cc(OC)cc(-c2cc3nc(C)c(CCC(=O)Nc4nc(C)cs4)c(C)n3n2)c1	-8.9%	1%	14%	10%	u	u	-22%	14%
CCCCCNC(=O)CCc1ccccc1	-3.1%	5%	1%	-16%	-5%	14%	-2%	7%
Cc1cc(C)cc(C(=O)NCCc2csc(-c3ccc(C(F)(F)F)cc3)n2)c1	1.2%	x	x	x	u	-23%	-17%[46.1 µM]	x
CC1COc2ccccc2N1S(=O)(=O)c1ccc(Cl)cc1 (stereo not given)	x	-4%	x	-16%	x	-19%	-19%[46.1 µM]	u
CCOC(=O)c1ccc(NC(=O)c2nccnc2C(=O)O)cc1	-0.6%	3%	u	5%	-11%	-5%	x	x
CC(C)Nc1nnc(SC(C)C(=O)Nc2ccc(Cl)cn2)s1 (stereo not given)	x	3%	0%	5%	x	-5%	x	x
Cc1nnc(SCC(=O)Nc2c(Cl)cccc2Cl)n(N)c1=O	x	2%	x	-16%	x	-22%	21%[46.1 µM]	12%
Cc1ccc(OC2CCN(C(=O)C3CCC(=O)N(C4CC4)C3)CC2)cc1 (stereo not given)	x	3%	7%	-20%	x	-26%	-25%	-10%
Cc1nn(Cc2ccccc2Cl)c(C)c1C(=O)OCC(=O)NC1CCS(=O)(=O)C1 (stereo not given)	-2.0%	1%	-5%	6%	10%	u	4%	u
COc1ccc(C=O)cc1COc1ccc(Cl)cc1[N+](=O)[O-]	1.9%	1%	10%	7%	-13%	12%	u	-28%
Cc1ccc(CNC(=O)c2cn(C)c3ccc(S(=O)(=O)N4CCOCC4)cc3c2=O)cc1	-0.8%	-1%	-3%	-9%	9%	-11%&-5%	u	14%&13%[46.1 µM]
Cc1ccc(CNC(=O)c2ccc3oc(=O)n(Cc4ccccc4)c3c2)cc1	-1.5%	x	x	x	2%	-15%	u	x
Clc1ccccc1-c1ncc2ccccn12	x	-6%	x	-1%	x	2%	4%	28%[46.1 µM]
NC(=O)Cn1c(=O)n(CCCC(=O)NC2CCN(Cc3ccccc3)CC2)c(=O)c2ccccc21	0.7%	-3%	-2%	0%	4%	3%	8%	-3%&8%
CCn1nnnc1SCC(=O)Nc1ccc(OC)cc1	1.2%	1%	8%	14%	1%	12%	20%	-18%[46.1 µM]
CCOc1ccc(S(=O)(=O)NCCCn2ccnc2)cc1	x	0%	7%	0%	x	-11%	x	x
NC(=O)C[C@@H]1NC(=O)c2cc([N+](=O)[O-])cc(F)c2NCCCC[C@@H](C(N)=O)NC(=O)[C@H](CO)NC1=O	-8.7%	2%	40%	x	10%	x	24%	u
CCn1c(SCc2ccccc2C)nc(=O)c2c(C(=O)OC)cc(C3CC3)nc21	-4.7%	x	x	x	-23%	u	u	x
Cc1ccc(S(=O)(=O)N2CCCCC2)cc1C(=O)Nc1ccc(S(=O)(=O)Nc2ncccn2)cc1	x	-1%	-4%	26%	x	11%	x	x
NS(=O)(=O)c1ccc(CCNC(=O)c2ccc(Cn3c(=O)[nH]c4ccccc4c3=O)cc2)cc1	x	2%	x	4%	x	0%	1%	8%
Cc1ccc2cccc(OCC(=O)NCCC3=CCCCC3)c2n1	x	8%	x	7%	x	-15%	0%	-14%
Cc1ccccc1OCC(=O)NNC(=O)C1CCCCC1C(=O)O (stereo not given)	-1.0%	-2%	18%	7%	-2%	-15%	18%	11%
COc1ccc(CCNC(=O)COC(=O)/C=C/c2cc(OC)c(OC)c(OC)c2)cc1OC	x	2%	x	-11%	x	-24%	-4%	-10%
Cc1ccc(NC(=O)CCC(=O)NNC(=O)NC2CCCCC2)c(C)c1	x	-1%	5%	5%	x	-7%	11%[46.1 µM]	5%[46.1 µM]
CCC(c1ccccc1)c1nnc(NC(=O)c2ccco2)s1 (stereo not given)	x	-2%	0%	2%	x	28%	x	x
CCOC(=O)C1=C(C)NC2=C(C(=O)C(C(=O)OCC)C(c3ccccc3OC)C2)C1c1ccccn1 (stereo not given)	2.1%	4%	-16%	5%	18%	-26%	-14%	-2%
O=c1nc(N2CCCC2)nc(Nc2ccccc2)[nH]1	-3.2%	0%	-6%	-1%	-4%	-13%	0%	6%
O=C(NCC1CCN(Cc2cccc(Cl)c2)CC1)C1CCCN(c2ncnc3c2nc2n3CCCCC2)C1 (stereo not given)	x	-6%	-12%	5%	x	-19%	x	x
COc1ccc(C)c(NC(=O)NCCc2cnc[nH]2)c1	x	-12%	-5%	16%	x	-12%	30%[46.1 µM]	-19%[46.1 µM]
Cc1ccc(CN2C(=O)C3CCCN3c3ccc(C#N)cc32)cc1 (stereo not given)	-0.5%	-4%	14%	x	10µM*	x	x	1%
Cc1ccc(NC(=O)CSc2c3c(nc4ccccc24)CCCC3)cc1F	-6.9%	x	x	x	-23%	-28%	-11%[46.1 µM]	-2%[46.1 µM]
C=CCn1c(=NC(=O)c2cccs2)sc2cccc(OC)c21	x	-1%	-12%	-18%	x	1%	-20%	-17%
O=[N+]([O-])c1ccc(NC(=S)NCCc2ccccc2)cc1	-18%	-81%	-35%	-3%	-12%	36%[activator]	u	u
Cn1ncc2c(Nc3cccc(C#N)c3)ncnc21	-0.6%	x	x	x	-4%	-16%	7%[46.1 µM]	x
O=c1cnn(-c2ccc(Cl)cc2Cl)c(-c2ccccc2)c1	-6.6%	-5%	-7%	-6%	12%	2%	u	-40%
CNS(=O)(=O)c1cn(CC(=O)Nc2ccc(OC)cc2OC)cc1S(=O)(=O)NC	-1.8%	x	x	x	2%	4%	17%[46.1 µM]	x
O=C(COC(=O)c1ccc([N+](=O)[O-])s1)Nc1cccc(S(=O)(=O)NC2=NCCCCC2)c1	x	0%	-3%	-11%	x	-7%	x	x
CCC(=O)Nn1cnc2c(c1=O)C1(CCCCC1)Cc1ccccc1-2	-2.3%	-9%	-13%	-14%	17%	-24%	-9%	-7%[46.1 µM]
CN(Cc1cn(C)nc1-c1ccccc1F)C1CCOC1 (stereo not given)	x	1%	5%	10%	x	-15%	-3%	21%[46.1 µM]
Cc1ccc(CSc2nnc([C@@H]3CCCN3C(=O)OC(C)(C)C)o2)cc1	x	0%	0%	28%	x	-28%	x	x
CCOC(=O)c1c(NC(=O)CSC(=S)N2CCOCC2)sc(C)c1C	1.1%	-8%	-7%	-15%	-27%	-11%	-6%	u
CCCC(=O)N1CCN(c2ccc(NC(=O)c3ccc(OCC)c([N+](=O)[O-])c3)cc2)CC1	1.0%	-4%	0%	11%	5%	-16%	12%	0%
Cc1cccc2c1nc(-c1ccccc1)n1cnnc21	-1.8%	3%	-8%	-1%	4%	u	0%	14%
COc1ccc(C(=O)C2CCCN(Cc3cccn3-c3cccnc3)C2)cc1OC (stereo not given)	x	0%	7%	-20%	x	u	14%	-1%[46.1 µM]
CCc1cc2ccc(C)cc2nc1SCC(=O)c1ccc(NC(C)=O)cc1	-0.5%	-23%	-6%	8%	u	x	u	u
OCC1OC(n2nc3ccccc3n2)C(O)C(O)C1O (stereo not given)	-1.8%	10%	5%	0%	-6%	x	-3%	21%
COc1cccc(/C=N/NC(=O)C(=O)NCc2cccnc2)c1OC	x	0%	4%	-3%	x	3%	-6%	3%[46.1 µM]
COc1ccc(/C=N\NC(=O)C2=NNC(=O)C2C)cc1 (stereo not given)	-4.6%	-8%	0%	11%	-12%	26%	-1%	u
N#Cc1cn(CCOC(=O)c2cccc(C(F)(F)F)c2)c(=O)[nH]c1=O	x	2%	x	0%	x	-14%	1%[46.1 µM]	-9%[46.1 µM]
COc1c2c(cc3c1OCO3)CC[N+](C)=C2	-6.0%&-8.6%	0%	-4%	-15%	-11%&5%	6%&-15%&-11%	x	x
CC(C)CC(=O)N1CCN(C(=O)c2ccco2)CC1	x	5%	x	-5%	x	-8%	16%	-7%[46.1 µM]
Cc1cc(-n2c(C)cc(C(=O)COc3ccc4ccc(=O)oc4c3)c2C)no1	-3.5%	3%	-12%	-24%	-8%	-29%	-18%	u
CCC(C)(C)NC(=O)CN(C(=O)CCC(=O)Nc1nccs1)c1cccc(C)c1	x	2%	28%	0%	x	5%	x	x
COc1ccc(/C=N/OC(=O)Nc2ccccc2)cc1[N+](=O)[O-]	-7.7%	-28%	-14%	-13%	-8%	13%	-21%[46.1 µM]	u
COc1ccc2c(c1)c(/C=N/Nc1ccc(C(=O)O)cc1)c(C)n2C	x	-4%	1%	-8%	x	41%[activator]	x	x
O=C(Nc1ccc(-c2nc3ccccc3o2)cc1)c1ccc(N2C(=O)C3C4C=CC(C4)C3C2=O)cc1 (stereo not given)	-19%	-4%	10%	-4%	-1%	x	15µM*	-38%
COc1cccc(NC(=O)CSc2ccc3nnc(-c4ccccn4)n3n2)c1	x	-1%	5%	4%	x	-12%	x	x
Later entries
SMILES	Cruzain inh Det	SARS PLpro yeast	NS1 inh	RE007 growth inh	Cruzain inh noDet	StopGo reporter	Lassa entry inh	MARV entry inh
CNC(=O)/C(C#N)=C/c1cc(C)n(-c2ccc(N3CCOCC3)cc2)c1C	x	1%	8%	-7%	x	-5%	x	2%
O=c1c(-c2nc3ccccc3s2)cccn1Cc1ccccc1	26%	12%	-5%	19%	-4%	24%	u	u
O=C(Nc1cccc(Cl)c1)Nc1ccccc1NS(=O)(=O)c1cccs1	-11%	-20%	-63%	-2%	9%	-8%	u	u
COc1ccc(-n2nnc3c(SCC(=O)c4ccccc4)ncnc32)cc1	2.2%	7%	5%	9%	1%	-15%	5%	-1%
